Compound activity: PubChem BioAssay, National Center for Advancing Translational Sciences (NCATS)
SARS PLP yeast – inhibitors of SARS-CoV papain-like protease in yeast; S. cerevisiae expressing SARS-CoV PLpro, growth rescue; control for the full effect not named in the record; Potency, µM (top dose mostly 32.9 µM), without a hit: at the top dose activity, positive = growth rescue; 330,000 tested, 0.19% active; note: 0% is about no effect; nearly all actives have a fitted effect of over 55% in size; growth read by luminescence after 48 h
2A StopGo – lowers the luciferase signal of an FMDV 2A StopGo reporter; human cells with a luciferase reporter of 2A StopGo recoding; control for the full effect not named in the record; Potency, µM (doses to about 57.9 µM), for the others: at the top dose signal change, negative = less light; 410,000 tested, 1.2% active; active = well fitted falling curve with a large enough effect; inconclusive = small, poorly fitted or top-dose-only effect; inactive = no such curve, though single readings can be large or run the other way; tested in HEK293T cells; note: % is set by controls: 0 for no effect and ±100 for the full control effect; nearly all actives have a fitted effect of over 45% in size; luciferase light after 4 h
LASV entry inh – Lassa virus entry inhibition; Lassa virus pseudotype entry inhibition, cell reporter; control for the full effect not named in the record; Potency, µM (titrated, usually from 37.9 µM), without a hit: top-dose activity change, negative = inhibition, actives largely listed as inhibitors; 300,000 tested, 1.2% active; active means well fitted inhibition curve with a large enough effect; inconclusive means small, poorly fitted or top-dose-only effect, or effect the other way; inactive means flat fitted curve, though single readings scatter; tested in HEK293 cells; note: % is set by controls: 0 for no effect and ±100 for the full control effect; nearly all actives have a fitted effect of over 50% in size; luciferase read-out
RE007 growth inh – less growth of the S. pombe RE007 Vpr strain; S. pombe RE007 Vpr strain, BacTiter-Glo ATP luminescence, 24 h; control for the full effect not named in the record; Potency, µM (highest dose often 92.2 µM), for the others: at the highest dose activity change, negative = less growth; 360,000 tested, 0.21% active; AID 651644; active = well fitted falling curve with a large enough effect; inconclusive = small, poorly fitted or top-dose-only effect; inactive = no such curve, though single readings can be large or run the other way;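 note: % is set by controls: 0 for no effect and ±100 for the full control effect; nearly all actives have a fitted effect of over 50% in size; the assay follows cell death caused by Vpr and the record does not say whether a fall means rescue or toxicity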
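Fission yeast RE007 carrying one integrated HIV-1 vpr copy, seeded at OD 0.01 in PMG+AL medium with 23 nL pinned compound. Grown 24 h at 30 degrees; viability read by BacTiter-Glo luminescence after 5 min.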
MARV entry inh – blocks Marburg virus binding to or entry into cells. Marburg virus pseudotyped entry inhibition, cell reporter; control for the full effect not named in the record; about a third of the inactives were read at about 46 µM. Potency, µM (doses to about 37.8 µM), for inactives: top-dose activity change, negative = inhibition, hits mostly inhibitors. 300,000 tested, 1.8% active; active = well fitted inhibition curve with a large enough effect; inconclusive = small, poorly fitted or top-dose-only effect, or effect the other way; inactive = flat fitted curve, though single readings scatter; tested in HEK293 cells; about a fifth of its hits are not listed in these tables; note: % is set by controls: 0 for no effect and ±100 for the full control effect; luciferase read-out
NS1 function inh – influenza NS1 inhibition; Potency, µM (top dose mostly 46.1 µM), for the others: top-dose activity, positive = more growth; S. cerevisiae slowed by influenza A NS1, growth recovery by OD600; 270,000 tested, 0.4% active; note: actives are rising curves; nearly all actives have a fitted effect of over 50% in size
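Read-out: OD600 growth recovery of NS1-expressing budding yeast. Cells grown overnight at 30C in -URA glucose medium, washed, resuspended and diluted 1:100 in 2% galactose assay medium, pH 6.0. Same strain lacking NS1 served as positive control.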
Cruzain inh noDet – cruzain (T. cruzi) inhibition without detergent; purified cruzain, Z-FR-AMC fluorescence, no detergent; P25779; AID 1476; Potency, µM, for the others: max response, negative = inhibition, usual class: inhibitors; 200,000 tested, 2.3% active; active = well fitted curve in the direction sought with a large enough effect; inconclusive = small, poorly fitted or top-dose-only effect, or another doubt; inactive = no such curve, though single readings can be large; an effect the other way counts as inactive or inconclusive;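 note: plate controls were enzyme without inhibitor for no effect and buffer without enzyme for full effect; nearly all actives have a fitted effect of over 40% in size; top concentration of the series not given in the record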
Target sequence (P25779 123-467 limits assumed): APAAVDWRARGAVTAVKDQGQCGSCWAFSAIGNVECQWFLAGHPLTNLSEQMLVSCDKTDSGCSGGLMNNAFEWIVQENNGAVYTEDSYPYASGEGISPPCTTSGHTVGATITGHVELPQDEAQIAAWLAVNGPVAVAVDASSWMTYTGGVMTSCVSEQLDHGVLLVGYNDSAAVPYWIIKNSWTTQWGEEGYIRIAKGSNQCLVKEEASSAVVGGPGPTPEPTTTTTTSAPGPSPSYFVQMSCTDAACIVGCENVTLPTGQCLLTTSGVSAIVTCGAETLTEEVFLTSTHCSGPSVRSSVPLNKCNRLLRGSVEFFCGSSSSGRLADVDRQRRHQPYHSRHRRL
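Purified cruzain at 1.5 nM, pre-incubated 15 min with compound at room temperature in 100 mM sodium acetate pH 5.5, 5 mM DTT, 0.00005% Triton X-100. Reaction started with 2 uM Z-FR-AMC; AMC fluorescence increase over 60 s gives rate.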
Cruzain Triton – cruzain (T. cruzi) inhibition with detergent. P25779. purified cruzain, Z-FR-AMC fluorescence, 0.01% Triton. Potency, µM, inactives show max response, negative = inhibition, usual class: inhibitors. 200,000 tested, 0.43% active. AID 1478; active = well fitted curve in the direction sought with a large enough effect; inconclusive = small, poorly fitted or top-dose-only effect, or another doubt; inactive = no such curve, though single readings can be large; an effect the other way counts as inactive or inconclusive;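 note: plate controls were neutral wells for no effect and buffer without enzyme for full effect; nearly all actives have a fitted effect of over 40% in size; top concentration of the series not given in the record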
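Detergent-containing arm of a paired screen for aggregation-based inhibition: 0.01% Triton X-100 present. Cruzain at 1.5 nM cleaved 2 uM Z-FR-AMC at pH 5.5 with 5 mM DTT; AMC fluorescence gain over 60 s measured activity.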
* = called active by the depositor; ? = inconclusive; . = not tested or not shown; & = joins results of further samples; [ ] = dose if it differs, or a comment. Unless noted, calls come from the whole dose curve; as a rule, active means well fitted rising curve with a large enough effect; inconclusive means small, poorly fitted or top-dose-only effect; inactive means no such curve, though single readings can be large or run the other way. Potency is the fitted concentration of half-maximal effect.

SMILES	SARS PLP yeast	2A StopGo	LASV entry inh	RE007 growth inh	MARV entry inh	NS1 function inh	Cruzain inh noDet	Cruzain Triton
C/C(=N/Nc1ccc(C(=O)O)cc1)c1ccc2c(c1)Nc1ccccc1S2	.	11%	-26%[46.1 µM]	-14%	?	.	.	.
CN(C)c1ccc(C=NC(CO)C(O)c2ccc([N+](=O)[O-])cc2)cc1 (stereo not given)	-3%	14%	5%	20%	16%[46.1 µM]	-9%	.	.
Cc1ccc(-n2ncc3c(Nc4cccc(C)c4)ncnc32)cc1	.	31%[activator]	-4%[46.1 µM]	.	.	.	-9%	-1.1%
COC(=O)/C=C/c1ccc(OC(=O)c2ccncc2)cc1	13%	8%	2%	5%	18%	-7%	4%	-2.6%
CCOC(=O)N1CCC(NC(=O)c2cc3c(-c4ccccc4F)nn(C)c3s2)CC1	3%	?	.	-2%	.	-96%	?	1.4%
COc1ccc(C2=NOC(Cn3c(Cc4ccc(Cl)cc4)nc4c3c(=O)n(C)c(=O)n4C)C2)cc1 (stereo not given)	-1%	-20%	-2%	17%	-8%	-63%	?	-3.5%
CCN(CC)S(=O)(=O)c1ccc(NC(=O)C2c3ccccc3Oc3ccccc32)cc1	4%	-17%	?	4%	?	-12%	?	-5.0%
CCN(c1cc(C)cc(C)c1)S(=O)(=O)c1nnc(NC(=O)C2CCCCC2)s1	.	-11%	-13%[46.1 µM]	.	.	.	15%	-4.5%
Cc1cccc(-n2c(SCC(=O)O)nc3sc4c(c3c2=O)CCC4)c1	-1%	-13%	.	10%	.	11%	.	.
COc1ccccc1NC(=O)CSCc1cc(=O)n2ccsc2n1	0%	-6%	.	-2%	.	-4%	.	.
CCS(=O)(=O)N1Cc2ccccc2CC1C(=O)Nc1nnc(SCc2c(Cl)cccc2Cl)s1 (stereo not given)	20%	5%	25%	-16%	?	2%	7.9µM*	-1.5%
CC(=O)c1cc(C)ccc1OC(=O)c1cccc2nc(C)oc12	4%	-26%	9%	4%	0%	-12%	-6%	-2.8%
Cn1c(=O)c2c(-c3ccccc3)n(C3CCCCC3)cc2n(C)c1=O	4%	.	?	5%	?	1%	12%	-1.9%
Cc1nc2sc(C(c3cccc(F)c3)N3CCN(C(=O)c4ccco4)CC3)c(O)n2n1 (stereo not given)	-5%	26%	2%	4%	-15%[46.1 µM]	-5%	?	4.5%
CCOC(=O)c1ccccc1NC(=O)c1cn(CC(C)C)c(=O)c2cc(OC)c(OC)cc12	.	-29%	8%[46.1 µM]	.	7%[46.1 µM]	.	-5%	-0.9%
COC(=O)CC1Sc2ccccc2NC1=O (stereo not given)	2%	17%	-1%	-7%	-4%	-13%	-2%	-3.4%
COCCCNC(NC(=O)c1ccc(C)cc1)C(Cl)(Cl)Cl (stereo not given)	1%	-4%	-7%	29%	0%	-3%	3%	3.6%
O=C(O)c1cc(S(=O)(=O)Nc2cccc(S(=O)(=O)N3CCCC3)c2)ccc1Cl	2%	0%	-2%	8%	?	.	.	.
CCOCc1c(C(=O)Nc2ccc(OC)nc2)oc2ccccc12	2%	0%	4%	-7%	-22%[46.1 µM]	-27%	.	.
CC1CCCCN1CCCNC(=O)c1nn(C)c2c1CSc1ccccc1-2 (stereo not given)	-3%	-16%	.	-19%	.	-9%	.	.
O=C(c1ccc(Cn2cc([N+](=O)[O-])cn2)o1)N1CCCC1	1%	-13%	18%[46.1 µM]	-1%	0%[46.1 µM]	5%	.	.
Cc1cc(NC(=O)c2sc(Nc3ccc(F)cc3)nc2N)no1	6%	22%	-1%[46.1 µM]	1%	-23%[46.1 µM]	.	.	.
CC1=NNC(=O)C1CCC(=O)N/N=C\c1ccccc1[N+](=O)[O-] (stereo not given)	1%	25%	-2%	-6%	15%	12%	-15%	1.4%
CCN(Cc1cnn(C)c1)C(=O)c1ccc(OC2CCN(S(=O)(=O)N(C)C)CC2)cc1	0%	-11%	3%[46.1 µM]	-15%	?	6%	.	.
CC(C)(C)c1cc(NC(=O)Nc2ccccc2OC(F)(F)F)no1	6%	-5%	.	7%	.	10%	.	.
CC(O)CN1CC(O)=C(c2nc3ccccc3s2)C1=N (stereo not given)	1%	13%	-16%[46.1 µM]	-2%	15%[46.1 µM]	.	.	.
CN(C)C(=O)CSc1nnc(-c2cc(-c3cccs3)nc3ccccc23)o1	-2%	-17%	-25%	-1%	?	-44%	?	-3.5%
O=C(NNC(=O)C1CCN(c2ncccn2)CC1)c1ccccc1	2%	-6%	13%	-7%	1%	-2%	.	.
NC(=O)CSc1nnc(NC(=O)C2CC(=O)N(c3ccc(F)cc3)C2)s1 (stereo not given)	-5%	-24%	16%	-9%	19%	?	.	.
Cc1nn(-c2ccccc2)c(C)c1NC(=O)COc1ccc(C#N)cc1	?	?	12%	.	-6%	8%	16%	-1.2%
Cc1cc(C)nc(NNC(=O)NC2CCCCC2)n1	7%	-11%	6%	1%	3%	.	.	.
O=C(CCNC(=O)c1ccc(Cl)cc1)NCCC1=CCCCC1	7%	18%	?	9%	?	.	.	.
CCCSCCCNC(=O)c1ccc2c(c1)sc1nc(-c3ccc(OCC)cc3)cn12	.	-7%	-12%[46.1 µM]	.	.	.	16%	-0.8%
O=C(OCC1OC(n2cnc3c(N(C(=O)c4ccccc4)C(=O)c4ccccc4)ncnc32)C(O)C1F)c1ccccc1 (stereo not given)	-2%	10%	13µM*	9%	-9%	15%	0%	0.4%
Cc1cccc(C=CC(=O)c2ccc(Cl)cc2)c1	.	-17%	-1%	-11%	-22%	.	.	.
CCCCOc1ccc(C(=O)N2CCNC(=O)C2CC(=O)OC(C)C)cc1 (stereo not given)	-1%	-19%	.	-5%	.	-8%	.	.
COc1ccc(C(=O)NCc2n[nH]c(=S)n2-c2ccccc2)cc1OC	21%	.	4%	-5%	0%	0%	6%	-1.3%
CCCCOCCCn1c(-c2ccco2)nc2nc3ccccc3nc21	-14%	-7%	-26%	13%	-46%&-46%	?	?	28µM*
Cc1ccc(/C=N/n2cnc3sc4c(c3c2=O)CCCC4)o1	3%	.	16%	-18%	?	-45%	-5%	-10%
CC(=O)Nn1c(COc2ccccc2C)nc2ccccc2c1=O	-2%	10%	-4%	14%	?	-2%	9%	-0.9%
Oc1c(N=NC(=S)Nc2ccccc2F)c2ccccc2n1Cc1cccc(Cl)c1	3%	-3%	?	10%	?	.	.	.
CC(C)(C)c1ccccc1NC(=O)NC1CCN(Cc2c(F)cccc2Cl)CC1	1%	-26%	-19%	4%	3%[46.1 µM]	-4%	.	.
O=C(Cc1ccc(Cl)cc1)Nc1ccc(-c2cc3ccccc3oc2=O)c(Cl)c1	-11%	-4%	?	-8%	?	7%	0%	-13%
CN1C2=CC=CC=CC2=[N+](C)C12C([N+](=O)[O-])=CC(=[N+]([O-])[O-])C=C2[N+](=O)[O-] (stereo not given)	-1%	-15%	?	5%	?	2%	.	.
Fc1ccc(Cn2c(-c3cscn3)nc3ccccc32)c(Cl)c1	0%	-14%	2%	11%	1%[46.1 µM]	4%	-36%	2.2%
O=C1/C(=C/c2ccccc2F)SC(=S)N1CC(=O)N1CCCCC1c1cccnc1 (stereo not given)	-6%	0%	.	-14%	.	-72%	.	.
CCCCCNC(=O)Cc1ccc(S(=O)(=O)N2CCOCC2)s1	-2%	-14%	10%[46.1 µM]	18%	?	.	.	.
COc1ccc(OC)c(N(CC(N)=O)S(=O)(=O)c2ccc(OC)c(OC)c2)c1	2%	-11%	-8%	4%	-11%	-1%	1%	2.0%
COCCCNC(=O)C1CCCCN1S(=O)(=O)c1ccc(F)cc1 (stereo not given)	-5%	19%	0%	5%	25%	5%	1%	5.1%
CC1=CCC(C(=O)O)(C(=O)N/N=C/c2cccs2)C(c2ccc([N+](=O)[O-])cc2)C1 (stereo not given)	-7%	-5%	6%	1%	8%	19%	1%	-11%
CC(=O)c1cc(C)ccc1OC(=O)c1ccncc1	0%	1%	.	-7%	.	4%	.	.
CC1CCc2sc(C(=O)NCc3ccccn3)cc2C1 (stereo not given)	-2%	27%	7%	-4%	?	.	.	.
Cc1ccc(-c2c3c(nc4sc(C(N)=O)c(N)c24)CCCC3)o1	26%	?	-19%	-29%	-2%	-11%	-25%	-18%
Cc1ccc(/C=C2/C(=O)NC(=O)N(CCc3ccc(F)cc3)C2=O)s1	-2%	?	15%	5%	?	2%	?	-15%
O=C(NCCC1CCCCN1S(=O)(=O)c1ccccc1)C(=O)NCc1ccccn1 (stereo not given)	-5%	-11%	19%	-10%	-1%	.	.	.
O=C(Nc1ccc2c(c1)OCCO2)NC1(C(F)(F)F)Oc2ccccc2O1	-4%	-23%	.	16%	.	23%	-6%	-2.2%
O=C(O)c1ccc2nc(-c3ccccc3)sc2c1	-21%	2.5µM*	2.2µM*	-3%	1.5µM*	-23%	-8%	-5.4%
Cc1ccc(CNCCNCCO)s1	0%	-9%	?	-8%	9%	.	.	.
O=C(NCCCN1CCOCC1)c1cnn2c(-c3ccccc3)cc(-c3ccccc3)nc12	-1%	-18%	?	-20%	?	2%	-2%	2.9%
O=C(NC1CCCc2ccccc21)N[C@@H](Cc1ccccc1)C(=O)O (stereo not given in full)	3%	3%	0%	11%	-1%[46.1 µM]	1%	.	.

(cont.)
SMILES	SARS PLP yeast	2A StopGo	LASV entry inh	RE007 growth inh	MARV entry inh	NS1 function inh	Cruzain inh noDet	Cruzain Triton
Cn1c(=O)oc2cc(S(=O)(=O)N3CCCC(C(=O)Nc4ccc(Br)cc4F)C3)ccc21 (stereo not given)	.	-13%	-2%[46.1 µM]	.	?	.	7%	4.1%
CCCN1CCC(=O)N(CCN=[N+]=[N-])CC1	5%	-14%	.	-1%	.	11%	.	.
COc1ccc(CCC(=O)NCCc2csc(-c3cccc(F)c3)n2)cc1	.	-16%	11%[46.1 µM]	.	.	.	15%	-7.8%
Oc1cccc(Nc2cc(-c3ccccc3)ncn2)c1	.	53%[activator]	10%[46.1 µM]	.	11%[46.1 µM]	.	1%	-6.1%
